DUX4 inh = DUX4-mediated transcription inhibition. 37,000 tested, 0.8% active. AID 1224904. activity change, negative = inhibition, % (no concentration beside the values). 293T-iDUX4 ZSCAN4-Gaussia luciferase reporter, 24 h; stronger effect = lower value;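 active = -10% or lower and over 25 points stronger than a control reporter; inconclusive = -10% or lower with a smaller gap; inactive = above -10%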;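 note: 0% = median of neutral control wells and -100% = median of positive control wells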
DUX4 inh difference = also measured in DUX4 inh; calls as there; Gaussia minus Italica difference, %; measured here: selective DUX4 reporter inhibition;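 worked out from the two reporters; negative = selective loss of the DUX4 reporter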
DUX4 inh control = further read-out of DUX4 inh, marked with its call; activity change, negative = inhibition, %; measured here: Italica tet-on control reporter;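 0 = neutral control and -100 = positive control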
Starred values were filed as active, the others as inactive; ? = inconclusive; / = no result given; & = joins results of further samples. Not all compounds are listed, so the mix of outcomes need not match the whole.

smiles | DUX4 inh | DUX4 inh difference | DUX4 inh control
C[C@@H]1CN([C@H](C)CO)C(=O)c2cccc(NC(=O)Nc3ccc(F)cc3)c2O[C@@H]1CN(C)CC1CCCCC1 | 2.0 | 1.0 | 1.0
O=C(CC1CC1)N1CC(=O)N2[C@H](C1)[C@H](c1ccc(C#Cc3ccc(F)cc3)cc1)[C@@H]2CO | -5.1 | -4.1 | -1.0
CCCC#Cc1ccc([C@@H]2[C@H]3CN(S(=O)(=O)Cc4ccccc4)CCCCN3[C@H]2CO)cc1 | -0.2 | -17.5 | 17.3
COc1ccc2c3c(n(C)c2c1)[C@@H](CO)N(Cc1ccncc1)CC31CN(C(=O)Cc2ccncc2)C1 | 2.3 | -12.8 | 15.1
CO[C@@H]1CN(C)C(=O)c2cc(NC(=O)NC3CCCCC3)ccc2OC[C@H](C)N(CC2CCOCC2)C[C@H]1C | -4.8 | -3.1 | -1.7
C[C@H]1CN([C@@H](C)CO)C(=O)c2cc(NC(=O)NC3CCCCC3)ccc2O[C@@H]1CN(C)C(=O)Nc1ccc2c(c1)OCO2 | 2.9 | 4.0 | -1.2
Cc1ccc(-c2ccc3c(c2)O[C@@H](CN(C)CC2CCCC2)[C@H](C)CN([C@@H](C)CO)S3(=O)=O)cc1 | -1.7 | -4.4 | 2.7
COC(=O)N(C)C[C@@H]1OCc2cnnn2CCCC(=O)N([C@@H](C)CO)C[C@@H]1C | 1.5 | 0.5 | 1.0

Shown as labelled records: 2 of the compounds above
> COc1ccc2c3c(n(C)c2c1)[C@@H](CO)N(Cc1ccncc1)CC31CN(C(=O)Cc2ccncc2)C1
- DUX4 inh: 2.3
- DUX4 inh difference: -12.8
- DUX4 inh control: 15.1
> Cc1ccc(-c2ccc3c(c2)O[C@@H](CN(C)CC2CCCC2)[C@H](C)CN([C@@H](C)CO)S3(=O)=O)cc1
- DUX4 inh: -1.7
- DUX4 inh difference: -4.4
- DUX4 inh control: 2.7

New compounds follow
smiles | DUX4 inh | DUX4 inh difference | DUX4 inh control
C[C@H](CO)N1C[C@H](C)[C@@H](CN(C)S(=O)(=O)c2cccc(F)c2)OCc2ccccc2-c2c(n(C)c3ccccc23)C1=O | ? | / | /
COc1ccccc1-c1ccccc1[C@H]1[C@@H](C#N)N(C(=O)C2CC2)[C@@H]1CO | 4.1 | -2.3 | 6.4
COc1cccc(-c2ccc([C@@H]3[C@H]4CNCC(=O)N4[C@H]3CO)cc2)c1 | 19.0 | 10.9 | 8.0
CCCC#Cc1ccc2c(c1)O[C@H](CN(C)Cc1ccccn1)[C@@H](C)CN([C@@H](C)CO)S2(=O)=O | -2.5 | 2.2 | -4.7
C[C@H](CO)N1C[C@H](C)[C@@H](CN(C)C(=O)c2ccncc2)OCCCC[C@H](C)Oc2ccc(NS(=O)(=O)c3cccs3)cc2C1=O | -0.1 | 0.5 | -0.5
COc1ccccc1-c1ccc2n(c1=O)C[C@@H]1[C@@H](CO)[C@H](C(=O)NCC3CC3)N(S(C)(=O)=O)[C@H]21 | 3.9 | -1.8 | 5.7
C[C@@H]1CN([C@@H](C)CO)C(=O)c2cc(NS(=O)(=O)c3cccs3)ccc2O[C@H]1CN(C)Cc1ccc(C(=O)O)cc1 | -1.6 | 2.3 | -4.0
COc1ccccc1C(=O)Nc1ccc2c(c1)OC[C@H](C)NC[C@@H](C)[C@H](OC)CN(C)C2=O | 1.8 | -2.7 | 4.5
CN1C(=O)c2cc(NC(=O)c3cc(F)cc(F)c3)ccc2OC[C@H]2O[C@H](CC(=O)O)CC[C@@H]21 | -3.0 | -10.0 | 7.0
CCC(=O)N1CC2(CN(C(C)=O)C2)c2c([nH]c3cc(OC)ccc23)[C@@H]1CO | 5.0 | 0.0 | 5.0
CO[C@@H](CN(C)S(=O)(=O)c1ccc(C)cc1)[C@H](C)CN(Cc1ccccc1Cl)[C@@H](C)CO | 3.1 | 1.5 | 1.6
Cc1ccccc1-c1ccc([C@H]2[C@@H](CO)N3CCCCN(C(=O)Nc4cccc(F)c4)C[C@@H]23)cc1 | ? | / | /
COc1ccccc1NC(=O)N1CCCCN2[C@H](C1)[C@@H](c1ccc(C#CC3CCCC3)cc1)[C@@H]2CO | 7.3 | -9.5 | 16.8
CO[C@@H]1CN(C)C(=O)c2ccc(NC(=O)Nc3ccccc3F)cc2OC[C@@H](C)N(C(C)=O)C[C@@H]1C | 1.0 | 5.0 | -3.9
C[C@@H]1CN([C@H](C)CO)C(=O)CCCn2nncc2CO[C@H]1CN(C)C(=O)Nc1cccc(C(F)(F)F)c1 | -3.1 | -5.5 | 2.4
COc1ccc(NC(=O)N(C)C[C@@H]2Oc3ccc(NS(=O)(=O)c4cccs4)cc3CC(=O)N([C@@H](C)CO)C[C@@H]2C)cc1 | 0.1 | 3.8 | -3.8

One compound at a time (already shown). Screens in order: DUX4 inh	DUX4 inh difference	DUX4 inh control
`COc1ccc(NC(=O)N(C)C[C@@H]2Oc3ccc(NS(=O)(=O)c4cccs4)cc3CC(=O)N([C@@H](C)CO)C[C@@H]2C)cc1` reads 0.1	3.8	-3.8
`C[C@H](CO)N1C[C@H](C)[C@@H](CN(C)C(=O)c2ccncc2)OCCCC[C@H](C)Oc2ccc(NS(=O)(=O)c3cccs3)cc2C1=O` reads -0.1	0.5	-0.5
`COc1cccc(-c2ccc([C@@H]3[C@H]4CNCC(=O)N4[C@H]3CO)cc2)c1` reads 19.0	10.9	8.0

(listing goes on)
smiles | DUX4 inh | DUX4 inh difference | DUX4 inh control
Cc1ccccc1S(=O)(=O)N1C[C@@H](O)COC[C@H]2O[C@H](CC(=O)O)CC[C@@H]21 | 11.6 | 6.8 | 4.7
COc1ccc(C#Cc2ccc([C@H]3[C@H]4CN(Cc5ccncc5)CCCCN4[C@H]3CO)cc2)cc1 | -55.4* | -36.9* | -18.6*
COc1cccc(-c2ccc([C@H]3[C@H]4CNCC(=O)N4[C@H]3CO)cc2)c1 | -1.5 | -3.9 | 2.5
C[C@@H](NC(=O)N(C)C[C@H]1OCc2ccccc2-c2c(n(C)c3ccccc23)C(=O)N([C@@H](C)CO)C[C@@H]1C)c1ccccc1 | 3.4 | 4.9 | -1.5
CCCNC(=O)C[C@@H]1CC[C@@H]2[C@H](COc3ccc(NC(=O)NC(C)C)cc3C(=O)N2C)O1 | 7.2 | 3.0 | 4.2
O=C(C[C@H]1C[C@@H]2c3cc(NC(=O)Nc4ccc(C(F)(F)F)cc4)ccc3O[C@@H]2[C@H](CO)O1)NCc1ccc2c(c1)OCO2 | -2.7 | -13.4 | 10.7
Cc1cccc(-c2ccc([C@@H]3[C@@H](CO)N4C(=O)CN(C(=O)Cc5ccccn5)C[C@H]34)cc2)c1 | -1.9 | -1.9 | 0.0
CO[C@@H](CN(C)Cc1cc(F)ccc1F)[C@@H](C)CN([C@H](C)CO)S(=O)(=O)c1ccc(C)cc1 | 1.8 | -8.6 | 10.4
CCNC(=O)[C@@H]1[C@@H](CO)[C@@H]2Cn3c(ccc(-c4cccc(F)c4)c3=O)[C@@H]2N1C(C)=O | -1.2 | -2.2 | 1.0
COc1ccccc1NC(=O)N[C@@H]1C=C[C@@H](CC(=O)N[C@@H](C)c2ccccc2)O[C@@H]1CO | 3.3 | 3.2 | 0.1
Cc1noc(C)c1NC(=O)N(C)C[C@H]1OCc2ccccc2-c2c(n(C)c3ccccc23)C(=O)N([C@H](C)CO)C[C@@H]1C | -2.7 | -7.0 | 4.3
C[C@H]1CN([C@@H](C)CO)C(=O)c2cccc(NC(=O)C3CCCCC3)c2O[C@@H]1CN(C)Cc1ccc(Cl)c(Cl)c1 | 1.9 | -0.1 | 2.0
C[C@@H]1CN([C@@H](C)CO)C(=O)c2c(c3ccccc3n2C)-c2ccccc2CO[C@@H]1CN(C)S(=O)(=O)c1ccccc1C#N | 4.0 | 6.2 | -2.2
C[C@@H]1CN([C@H](C)CO)C(=O)Cc2cc(NC(=O)c3ccncc3)ccc2O[C@H]1CN(C)Cc1ccc2c(c1)OCO2 | 1.4 | 2.8 | -1.5
C[C@@H](O)C#Cc1ccc([C@H]2[C@H](CO)N3CCCCN(C(=O)c4ccncc4)C[C@@H]23)cc1 | 6.2 | 9.0 | -2.8
C[C@H](C(=O)N(C)C[C@H]1OCc2ccccc2-c2c(n(C)c3ccccc23)C(=O)N([C@@H](C)CO)C[C@@H]1C)c1ccccc1 | ? | / | /
C[C@H](CO)N1C[C@H](C)[C@H](CN(C)C(=O)c2cccnc2)Oc2cc(C#CC3(O)CCCC3)ccc2S1(=O)=O | 1.5 | 1.7 | -0.2
CCCNC(=O)N1C[C@@H](O)COC[C@@H]2O[C@@H](CC(=O)OC)CC[C@H]21 | 4.6 | 1.3 | 3.3
C[C@H](CO)N1C[C@H](C)[C@H](CN(C)Cc2ccccc2C(=O)O)OCc2cn(nn2)CCCC1=O | 3.0 | -0.9 | 3.9
C/C=C/c1ccc(C2[C@@H]3CN(C(=O)NC4CCCCC4)C[C@H]2N3)cc1 (stereo partly drawn) | 4.3&-1.8 | -2.1&-2.9 | 6.3&1.1
C[C@H]1CN([C@@H](C)CO)C(=O)c2cccc(N(C)C)c2O[C@@H]1CN(C)S(=O)(=O)c1cccs1 | 0.8 | 2.4 | -1.6
O=C(c1cccc(F)c1)N1C[C@@H]2[C@H](c3ccccc31)[C@H](CO)N2Cc1cocn1 | 1.3 | 1.3 | 0.0
CCC(=O)N1[C@H](CNC(=O)CN(C)C)[C@@H](c2ccc(C3=CCCC3)cc2)[C@@H]1CO | -8.3 | -7.7 | -0.6
O=C(Nc1ccc(F)cc1)N1CC(=O)N2[C@@H](CO)[C@H](c3ccc(C#CC4CC4)cc3)[C@@H]2C1 | 7.3 | -0.5 | 7.8
C[C@H]1CN([C@@H](C)CO)C(=O)c2cc(NS(=O)(=O)c3cn(C)cn3)ccc2O[C@H]1CN(C)CC1CCCCC1 | 7.5 | 8.1 | -0.6
O=C1CN(S(=O)(=O)c2ccccc2)C[C@H]2[C@H](c3ccc(Br)cc3)[C@H](CO)N12 | 5.8 | -4.3 | 10.2
O=C(NC1CCCCC1)[C@@H]1N[C@@H]2c3ccc(-c4cccc(F)c4)c(=O)n3C[C@@H]2[C@H]1CO | -7.5 | -10.7 | 3.2
CC(=O)N1[C@@H]2c3ccc(-c4ccccc4)c(=O)n3C[C@@H]2[C@@H](CO)[C@@H]1C(=O)NCc1ccccc1Cl | 1.4 | -0.9 | 2.2
CO[C@@H]1CN(C)C(=O)c2ccc(NS(C)(=O)=O)cc2OC[C@@H](C)N(C(=O)C2CCCCC2)C[C@H]1C | 4.5 | 0.8 | 3.6
CCC(=O)NC[C@H]1[C@@H](c2ccc(C3=CCCC3)cc2)[C@@H](CO)N1C(=O)C1CC1 | 4.0 | 6.5 | -2.5
COc1ccccc1NC(=O)N1CC(=O)N2[C@H](CO)[C@H](c3ccc(C#CCC(C)C)cc3)[C@H]2C1 | -5.1 | -5.7 | 0.6
COc1ccc(-c2ccc3c(c2)[C@@H]2[C@@H](CCN2S(=O)(=O)c2ccccc2C)[C@@H](CO)N3C)cc1 | 5.6 | 6.5 | -0.8
Cc1cccc(NC(=O)Nc2ccc3c(c2)C(=O)N(C)[C@@H]2CC[C@@H](CC(=O)NCc4ccccc4Cl)O[C@@H]2CO3)c1 | 4.5 | -2.2 | 6.7
N#C[C@H]1N[C@H](CO)[C@@H]1c1ccc(C2=CCCCC2)cc1 | -0.2 | -2.2 | 2.1
Cc1ccccc1NC(=O)Nc1ccc2c(c1)C(=O)N(C)[C@H]1CC[C@@H](CC(=O)NCC3CC3)O[C@@H]1CO2 | 0.1 | 0.9 | -0.8
O=C(C[C@@H]1C=C[C@@H](NC(=O)Nc2ccc3c(c2)OCO3)[C@H](CO)O1)NCCCN1CCOCC1 | 0.5 | -0.9 | 1.5
Cc1cccc(-c2ccc([C@@H]3[C@@H](CO)N4C(=O)CN(C(=O)NC5CCCCC5)C[C@@H]34)cc2)c1 | -5.5 | 0.8 | -6.3
C[C@@H]1CN([C@H](C)CO)C(=O)c2ccccc2-c2ccccc2CO[C@@H]1CN(C)Cc1ccc(Oc2ccccc2)cc1 | -3.3 | 2.6 | -5.8

Screens as filed in PubChem BioAssay.
